Biofilm kill mix – mixture kills Candida albicans biofilm cells. actives 0.02% (n = 120,000). C. albicans biofilm persisters + clotrimazole, fluorescence viability; primary screen in compound mixtures of four per well. inhibition, % at 7.6 µM;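 active = inhibition above 30.3% in the primary screen of four-compound pools, then above 30% when the compound was retested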;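 also: compounds exposed to preformed 24 h biofilms for 48 h; the number belongs to the whole pool; some results filed as inactive read as strong as hits; inactives centre near 12; 0% = biofilm with clotrimazole alone and 100% = kill control; retested singly at about 60 µM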
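Test system: C. albicans biofilms. Buffer or medium: RPMI/MOPS medium, pH 7.0. Timing: 48 h compound exposure at 37 °C. Technique: Alamar Blue fluorescence. Evaluation: percent inhibition of biofilm viability.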
* marks the source's active call; other numbers are inactive results.

The opening three entries as a preview:
SMILES	Biofilm kill mix
Cc1cc(C(=O)COc2ccc(Cl)cc2Br)c(C)n1C	14
CCCCC(O)(CCCC)C(=O)N/N=C(\C)c1ccc(Cl)cc1	8
COc1cc(/C=N/NC(=S)NCc2ccco2)cc(OC)c1OC	8

The listing (from the top)
SMILES	Biofilm kill mix
Cc1cc(C(=O)COc2ccc(Cl)cc2Br)c(C)n1C	14
CCCCC(O)(CCCC)C(=O)N/N=C(\C)c1ccc(Cl)cc1	8
COc1cc(/C=N/NC(=S)NCc2ccco2)cc(OC)c1OC	8
COc1ccc(CNC(=O)CSc2nc3cccnc3s2)cc1	20
Cc1cc(C)n(CC(=O)n2c(C)c(C)c3ccccc32)n1	-3
O=C(c1cccc(C(=O)N(c2ccccn2)C2CCCCC2)c1)N(c1ccccn1)C1CCCCC1	14
CCOC(=O)C(NC(=O)c1ccc(OC)cc1)(N1CCCC1=O)C(F)(F)F (configuration not stated)	17
Fc1ccc(CSc2ncnc3scc(-c4ccccc4)c23)cc1	23
Cc1csc(NC(=O)c2cncc(Br)c2)n1	-1
O=C(Cc1ccccc1)NNc1ccc2ccccc2c1	11
Cn1c(SCC(=O)N2c3ccccc3Sc3ccccc32)nc2ccccc21	11
O=C(Nc1ccccc1)c1snc2c(=O)[nH]cnc12	26
COc1ccc(N2CC(C(=O)Nc3nnc(SCc4ccccn4)s3)CC2=O)cc1 (configuration not stated)	1
CCOC(=O)/C(=C/c1ccc(OC)cc1)NC(=O)c1ccco1	11
Cc1ccc(Nc2nc(CSc3n[nH]c(N)n3)cs2)cc1	13
N#Cc1cnc(NOCc2ccc(Cl)cc2)nc1	2
CCOC(=O)c1c(-c2ccc(OC)cc2)csc1NC(=O)CSc1nnc(C)c(=O)[nH]1	12
C/C=C/C=N/Nc1nc(C)cc(=O)[nH]1	12
NS(=O)(=O)c1ccc(NC(=O)COC(=O)CCC2CCCCC2)cc1	8
Cc1cc(NC(=O)CSc2nncn2N)no1	17

Part of the list above, reformatted.
SMILES,Biofilm kill mix
Cc1ccc(Nc2nc(CSc3n[nH]c(N)n3)cs2)cc1,13
Cn1c(SCC(=O)N2c3ccccc3Sc3ccccc32)nc2ccccc21,11
O=C(Cc1ccccc1)NNc1ccc2ccccc2c1,11

Structures above that have an aryl methoxy group (6):
SMILES	Biofilm kill mix
COc1cc(/C=N/NC(=S)NCc2ccco2)cc(OC)c1OC	8
COc1ccc(CNC(=O)CSc2nc3cccnc3s2)cc1	20
CCOC(=O)C(NC(=O)c1ccc(OC)cc1)(N1CCCC1=O)C(F)(F)F (configuration not stated)	17
COc1ccc(N2CC(C(=O)Nc3nnc(SCc4ccccn4)s3)CC2=O)cc1 (configuration not stated)	1
CCOC(=O)/C(=C/c1ccc(OC)cc1)NC(=O)c1ccco1	11
CCOC(=O)c1c(-c2ccc(OC)cc2)csc1NC(=O)CSc1nnc(C)c(=O)[nH]1	12

Next part:
SMILES	Biofilm kill mix
COc1ccc(OC)c(N2CC(O)(c3ccccc3)[N+]3=C2SCCC3)c1 (configuration not stated)	12
Cc1ccc(C)n1-c1ccccc1N1CCCCC1	10
CCNc1nc(NCC)n2c(SCC(=O)Nc3ccc(F)cc3[N+](=O)[O-])nnc2n1	3
CCOc1ccc(N(CC(=O)Nc2c(C)cccc2C)S(=O)(=O)c2c(C)[nH]c(=O)[nH]c2=O)cc1	5
O=C(COc1cccc(C(F)(F)F)c1)N1CCN(c2ccc(O)cc2)CC1	17
CCOC(=O)C1=C(C)N(c2ccccc2)C(=O)NC1c1cccc([N+](=O)[O-])c1 (configuration not stated)	16
Cc1ccccc1NS(=O)(=O)c1ccc(OCC(=O)NCc2cccnc2)cc1	26
Cc1cc(C)n(C(=O)c2ccc([N+](=O)[O-])cc2[N+](=O)[O-])n1	-9
Cc1ccc(N(C(C)C(=O)N2CCOCC2)S(C)(=O)=O)cc1C (configuration not stated)	-1
COc1ccc2c(c1)CCCC21SC(NC(C)=O)=NN1C(C)=O (configuration not stated)	10
Cc1ccc(C(=O)NCC(=O)OCC(=O)c2cc(C)n(Cc3ccco3)c2C)cc1	13
O=C(COc1cc(F)ccc1[N+](=O)[O-])Nc1ccc(N2CCOCC2)cc1	19
CCC(C(=O)Nc1cc(Cl)c(OC)cc1OC)c1ccccc1 (configuration not stated)	16
COc1cccc(C(O)Cc2nc3ccccc3n2C)c1OC (configuration not stated)	-7
Cc1c(NC(=O)CSc2nc3c(cnn3-c3ccccc3)c(=O)[nH]2)c(=O)n(-c2ccccc2)n1C	13
Cc1ccc(CNC(=O)CO/N=C/c2ccc(C(C)(C)C)cc2)cc1	15
CCOC(=O)c1c(NC(=O)CN2C(=O)NC(C)(c3ccc(OC(F)F)cc3)C2=O)sc(C)c1C (configuration not stated)	-8
Cc1ccc(/C=C/C(=O)N2CCN(S(=O)(=O)c3c(C)c(C)cc(C)c3C)CC2)o1	23
COc1ccc(Cn2c(-c3ccc(C)cc3)c[n+]3ccccc23)cc1	17
CC1CCc2c(sc(NC(=O)COC(=O)C3CCCO3)c2C#N)C1 (configuration not stated)	8

Exported as comma-separated lines: entries from further up
SMILES,Biofilm kill mix
COc1ccc(Cn2c(-c3ccc(C)cc3)c[n+]3ccccc23)cc1,17
CC1CCc2c(sc(NC(=O)COC(=O)C3CCCO3)c2C#N)C1 (configuration not stated),8

Further compounds:
SMILES	Biofilm kill mix
O=C(OCC#CCSc1nnc(-c2ccc(Br)cc2)o1)c1cccs1	15
O=C(O)c1ccc(/C=N/NC(=S)NCc2ccccc2)cc1	11
CCCCn1c(N)c(Br)c(=O)[nH]c1=O	7
CCC(NC(=O)c1ccccc1NC(=O)c1ccco1)C(=O)NNC(=O)c1ccc(OC)cc1 (configuration not stated)	14
CSc1cccc(NC(=O)c2cnn3ccccc23)c1	1
Cc1c(CCOC(=O)c2ccc(N3CCOCC3)c([N+](=O)[O-])c2)sc[n+]1CC#N	15
Cc1ccc(OCCSc2nc3ncnc(N)c3[nH]2)cc1	15
O=C(CNc1ccccc1)c1ccc([N+](=O)[O-])cc1	15
COc1cc2c(cc1OC)CN(C(=O)c1ccc(Br)o1)CC2	21
OCC1CCCC(n2cnc3c(=S)nc[nH]c32)O1 (configuration not stated)	15
Fc1ccc(CN2CCCN(Cc3nc(-c4ccc5c(c4)OCO5)no3)CC2)cc1	22
CC1(C)O[C@@H]1COc1c2ccoc2cc2oc(=O)ccc12	11
CC1CCN(c2nc(N(C)c3ccccc3)nc(N)c2[N+](=O)[O-])CC1	27
Cn1c(CN2CCN(C(=O)c3ccc(F)cc3)CC2)nc2cc([N+](=O)[O-])ccc21	8
O=C(COC(=O)c1ccc([N+](=O)[O-])o1)Nc1cccc(S(=O)(=O)N2CCOCC2)c1	-3
COc1ccc([N+](=O)[O-])cc1NC(=O)Nc1ccccc1	16
O=C(CN1CCN(c2ccccn2)CC1)N1CC(O)CO1 (configuration not stated)	-2
NC(N)=N/N=C/c1cccc([N+](=O)[O-])c1O	8
CC(C)Oc1cccc(C(=O)C2CCCN(C(=O)CCn3cnnn3)C2)c1 (configuration not stated)	21
CCCn1c(SC/C(O)=C(\C#N)c2nc3ccccc3[nH]2)n[nH]c1=O	10
COc1ccc(C2CC(c3ccccc3)Nc3nc(NS(C)(=O)=O)nn32)cc1 (configuration not stated)	13
COc1ccc([N+](=O)[O-])c(OC)c1C(=O)Nc1ccc(F)cc1F	11
O=C(NNS(=O)(=O)c1ccc(F)cc1)c1ccc(S(=O)(=O)N2CCCCC2)cc1	10
O=C(CN1C(=O)C2CCCCC2C1=O)Nc1nccs1 (configuration not stated)	10
COCCn1c(SCC(=O)Nc2ccc(OC)c(S(N)(=O)=O)c2)nc2ccccc21	13
Clc1nc(Cl)nc(-c2cn(-c3ccccc3)c3ccccc23)n1	17
NC(=S)Nc1cccc(O)c1	17
N#Cc1c(-c2ccc(F)cc2)cc(C2CC2)nc1SCC(=O)c1cccs1	5
CCN(C(=O)c1ccco1)c1nnc(-c2ccc(OC)cc2)s1	12
O=C(COC(=O)/C=C/c1cccc(F)c1)NNC(=O)c1ccccc1	6
CCCC[C@@H]1CNC(=S)N1CCc1cccc2ccccc12	13
O=C(/C=C\c1ccc2c(c1)OCO2)NC1(C(=O)Nc2ccc3c(c2)OCO3)CCCCC1	12
CCOc1cc(/C=C/c2nc3cc(C)c(C)cc3s2)ccc1OCC(=O)N1CCOCC1	4
CCn1cc(C(=O)O)c(=O)c2cnc(N3CCN(C(=S)Nc4ccccc4C(F)(F)F)CC3)nc21	6
COc1ccccc1N1CCN(C2CCN(C(=O)c3ccc(F)cc3)CC2)CC1	11
CC1CCN(Cc2nnnn2-c2cccc([N+](=O)[O-])c2)CC1	19
COc1cccc(/C=C2\C(=O)N(c3cccc(C)c3)C(=O)c3ccccc32)c1	9
Cc1cc(-c2cc(-c3ccccc3)on2)nc(NC2CCCC2)n1	9
C/C(Cn1nnc([N+](=O)[O-])n1)=N\NC(=O)c1ccc(C)cc1	8
CC(C)n1cnc2c(=S)nc[nH]c21	16
CCc1nnc(NC(=O)c2ccc3c(c2)C(=O)N(CC)C3=O)s1	20
O=C(Nc1ccccn1)C(=O)N1CCCCC1	18
O=c1c(Cl)c(NCC2CCCO2)cnn1C12CC3CC(CC(C3)C1)C2 (configuration not stated)	21
COC(=O)Cc1cc(=O)[nH]c(/N=C(\N)Nc2ccc(C(C)C)cc2)n1	22
C/C(Cn1nnc([N+](=O)[O-])n1)=N\NC(=O)c1ccc(O)cc1O	11
Cc1nc2ncccn2c1-c1csc(Nc2ccc(O)cc2)n1	1
O=C1C(C=NCCN2CCOCC2)=C(O)c2ccccc21	18
NC(=O)c1ccccc1Nc1nc2nc3ccccc3c(=O)n2cc1Br	5
Cc1c(C(=O)c2ccc(N(C)C)cc2)c2ccccn2c1CCC#N	3
Cc1c(Cl)cn2c(=O)cc(CN(C)Cc3nc4ccccc4c(=O)[nH]3)nc2c1Cl	16
O=C1CCCc2c1nc(-c1ccc(F)cc1)n2O	27
CCOC(=O)c1cnc2c(C(=O)OC)cccc2c1NCc1cccnc1	27
CC(=O)Nc1ccc(OCC(=O)N2CCC(Cc3ccccc3)CC2)cc1	20
CC(=O)Nc1ccc(NC(=O)CN(C)S(=O)(=O)c2ccc3nc(C)sc3c2)cc1	11
CC12CC3(C)CC(C)(C1)CC(C(=O)NCC(=O)O)(C2)C3	15
C/C(=N\NC(N)=O)c1cc(Cl)cc(Cl)c1O	26
CCOC(=O)C1=C(C)Nc2nnnn2C1c1c[nH]c2ccccc12 (configuration not stated)	9
CCOC(=O)CC(=O)Nc1ccsc1C(N)=O	18
O=C(c1cccs1)N1CCN(c2nnc(-c3ccccc3)c3ccccc23)CC1	8
O=C(/C=C\c1ccc(-c2ccccc2)o1)c1ccccc1	-2

Further entries follow:
SMILES	Biofilm kill mix
Cc1ccc(C(=O)Oc2ccccc2C(=O)N2CCOCC2)cc1	5
Cc1cccc(NC(=O)c2nc[nH]c2C(=O)Nc2cccc(C)c2)c1	21
O=S(=O)(c1ccccc1)N1CCN=C1SCc1cccc(Cl)c1	8
Cc1nn(-c2ccccc2)c(N)c1C1(O)C(=O)N(C(C)C)c2ccccc21 (configuration not stated)	20
O=C(Nc1ccc(Cl)c(C(F)(F)F)c1)c1ccncc1	13
CCOc1ccc(-c2ccc(SCc3ccccn3)nn2)cc1	10
CCOC(=O)N1CCN(C(=O)CCn2c(=O)[nH]c3ccsc3c2=O)CC1	7
Cc1cc(C)cc(SCc2noc(C(=O)NCc3ccccc3)c2C(=O)NCc2ccccc2)c1	8
COc1ccc(C(=O)/C(=C\N(C)C)n2nc(C)cc2C)cc1	6
COc1ccc(F)cc1S(=O)(=O)N1CCCCC1	8
Cc1cc(NC(=O)CSc2nnc(C3CC3)n2-c2ccccc2)no1	0
Cc1cc(Cl)ccc1NC(=O)C1CCN(S(C)(=O)=O)CC1	7
COc1ccc(C(CC(=O)N2CCCCC2)c2c(OC)cc(OC)c3ccc(=O)oc23)cc1 (configuration not stated)	15
CC1SC2(NC1=O)C1CC3CC(C1)CC2C3 (configuration not stated)	-3
CC(=O)c1ccc(N2CCN(C(=O)Nc3ccc(C)cc3)CC2)cc1	10
O=C(/C=C/c1ccc(Cl)cc1Cl)Nc1ccc(CN2CCOCC2)cc1	14
COc1cccc2[nH]c(C(=O)NN)c(N)c12	25
Cc1nn(C)cc1CN(C)Cc1c(C(=O)N(C)Cc2ccccc2)nc2ccccn12	10
O=C(Nc1ccc2oc(=O)ccc2c1)c1cc2ccccc2o1	-3
CN(C)S(=O)(=O)c1cccc(NC(=O)COC(=O)CCC(=O)c2ccc(F)cc2)c1	24
COc1cc(CNc2ccc(N3CCCC3)cc2)ccc1OCc1ccccc1	15
C#CC(C)(CC)NC(=O)c1cc2cccc(CC=C)c2oc1=O (configuration not stated)	14
CCCCOc1ccc2c(C)cc(=O)oc2c1OCCCC	6
CN(Cc1ccccc1)C(=O)c1ccccc1C(=O)O	20
Cc1nc2c(-c3ccc(F)cc3)cnn2c2c1CCC2	2
CC(C)C[C@@H]1NC(=O)[C@H](C(C)C)NC(=O)c2cc([N+](=O)[O-])cc(I)c2NCC[C@@H](C(N)=O)NC1=O	7
Cc1ccc(-c2ccc(SCC(=O)N3CCN(c4ccccc4)CC3)nn2)cc1	-1
CCCCC[C@H](O)/C=C/C1=C(CCCCCCC(=O)O)C(=O)CC1	17
COc1ccc(C(=O)CSc2nc3cccnc3n2C)cc1	12
COCCNc1nnc(SC(C)C(=O)Nc2ccc(-c3nc4ccc(C)cc4s3)cc2)s1 (configuration not stated)	-3
O=C(NCc1ccc(Cl)cc1)C(=O)NCC1OCCN1S(=O)(=O)c1ccc2c(c1)OCCO2 (configuration not stated)	8
COc1cccc(NC(=S)NCc2cccnc2)c1	19
O=C(COC(=O)c1cc(-c2ccccc2Cl)nc2ccccc12)Nc1ncc(C(F)(F)F)cc1Cl	18
CCCCN(CC)CCCNC(=O)c1csc2c1CCCCC2	10
COc1cccc(C(=O)Nc2c3c(nc4c2CCC4)CCCC3)c1	19
O=C(/C=C/c1ccccc1Cl)c1ccc(O)cc1	16

High-throughput results (PubChem)

The list is partial. The share of hits here may be higher or lower than overall.
